Screening data from PubChem BioAssay.
FGF22 binding: FGF22 (human) thermal shift binding | Q9HCT0 | recombinant FGF22 thermal shift, SYPRO orange fluorescence; percent of sucrose octasulfate shift, DMSO zero | hit rate 1.5% among 340,000 | AID 651658 | calls only at 9.99 µM;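 active means melting point raised past a set limit in the mean and every replicate; inconclusive means no clear call; three in four hits are not shown here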
Target sequence (Q9HCT0 whole entry, looked up): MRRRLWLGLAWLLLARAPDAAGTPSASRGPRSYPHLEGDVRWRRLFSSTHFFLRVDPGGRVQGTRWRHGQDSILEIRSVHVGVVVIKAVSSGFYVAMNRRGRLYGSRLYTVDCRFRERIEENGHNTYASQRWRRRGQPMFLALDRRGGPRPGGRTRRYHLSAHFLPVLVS
rRNA inh HTS: selective bacterial rRNA inhibition in E. coli; hit rate 1.6% among 350,000; GFP signal change (wild-type ribosome), % (test concentration not listed); E. coli WT GFP vs humanized-ribosome RFP mutants, fluorescence, 24 h; active compounds read low; DMSO median 0, no signal -100;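 active means significant combined selectivity score with lowered wild-type GFP, culture density cut under 30%, mutant RFP and density less affected; inactive means any of these conditions unmet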; further: one replicate is shown; some compounds called inactive have numbers as strong as hits
UCH37 DUB inh: blocks the human deubiquitinase UCH37; inhibition, % (no concentration beside the values); AID 588478; Q9Y5K5; hit rate 0.33% among 330,000; purified proteasome/UCH37, Ub-AMC cleavage fluorescence;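 active means mean of two replicates above 20%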;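 further: 0% = compound-free wells with enzyme and 100% = wells lacking proteasome; stock transfer was 100 nL into about 20 µL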
Target sequence (Q9Y5K5 whole entry, looked up): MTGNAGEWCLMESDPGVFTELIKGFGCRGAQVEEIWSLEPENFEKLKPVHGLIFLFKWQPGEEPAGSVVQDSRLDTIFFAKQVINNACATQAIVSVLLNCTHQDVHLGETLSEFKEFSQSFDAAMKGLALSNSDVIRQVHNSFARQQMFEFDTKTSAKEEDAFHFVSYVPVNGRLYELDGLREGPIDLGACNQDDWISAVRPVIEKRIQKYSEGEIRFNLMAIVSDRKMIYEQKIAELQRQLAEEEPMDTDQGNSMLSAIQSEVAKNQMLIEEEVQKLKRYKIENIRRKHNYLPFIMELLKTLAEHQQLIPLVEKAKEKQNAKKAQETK
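System: Proteasome-associated human UCH37 deubiquitinase; Input: 0.15 nM proteasome in added enzyme buffer; Also added: Ub-AMC substrate from 1 µM stock; Incubation: 30 min compound-proteasome preincubation then 25 min substrate reaction, room temperature; Detection: fluorescence, ex 355 nm, em 460 nm; Read-out: % inhibition of Ub-AMC cleavage fluorescence; Benchmarks: no-proteasome and no-compound wells.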
Bfl-1 A1 inh: inhibitors of the anti-apoptotic protein A1, read as caspase activation; MEF A1-2A-BIM cells, Caspase-Glo 3/7 luminescence, 3 h; percent of clofoctol response, vehicle zero; caspase activation, % (concentration not given with the values); hit rate 0.066% among 330,000; AID 2462;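 active means over half of replicate activation scores above 10%, or exactly half above 10 with the replicate mean above 10; inconclusive means replicate mean below 10 yet half the replicates above 10; inactive means over half of replicates below 10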;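 further: wells of about 30 µL received 50 nL stock; many hits fall short of the cut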
T cruzi repl: blocks replication of Trypanosoma cruzi | inhibition, % (test concentration not listed) | AID 1885 | hit rate 1.4% among 300,000 | T. cruzi beta-gal in NIH3T3, luminescence, 90 h;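 active means mean inhibition across valid replicates above about 55%, limit read from the data; inconclusive means mean below that limit but half or more replicates reach it; inactive means mean below it, under half of replicates reach it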;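 further: signal also drops with host cell toxicity which is not excluded here; 0% = plate median of DMSO wells and 100% = zero luminescence signal; higher percent means less beta-gal luminescence so fewer parasites; stock transfer was 50 nL into about 50 µL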
Beta apoptosis: beta cell apoptosis inhibition; INS-1E cytokine-induced death, ATP luminescence, 48 h; percent of positive-control rescue, neutral wells zero; protection from apoptosis, % (no concentration beside the values); hit rate 0.8% among 300,000; AID 435005;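 active means all replicates at 75% or more, or half of them and the mean; inconclusive means half reach 75% but not the mean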;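 further: 0% = cytokine-treated negative control wells and 100% = positive control rescue; higher means more ATP so stronger rescue from cytokine killing; wells of about 40 µL received 100 nL stock; the first replicate is given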
E coli growth: E. coli growth inhibition. AID 1053175. OD600 absorbance (no concentration beside the values). Escherichia coli growth, OD600, 23 h; active compounds read low. hit rate 0.21% among 330,000;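 active means OD600 absorbance below the run mean of sample wells minus 3.6 SD, in any replicate, cut at about 0.56 in these data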;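 further: stock transfer was 300 nL into about 60 µL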
MLL AF4-AF9 inh: inhibitors of human MLL-AF4/AF9 interaction. AlphaScreen, biotin-AF4 peptide binding to FLAG-AF9. P42568. inhibition, % at 10 µM. hit rate 0.47% among 350,000;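 active means every replicate reaching a set inhibition limit, whatever the replicate mean, cut at about 25% in these data; inconclusive means mean inhibition reaches that limit but some replicates miss it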;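 further: 0% = plate neutral control median and 100% = total signal loss; the record names both 10 and 1 µM as test concentration; the first replicate is given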
Target sequence (P42568 whole entry, looked up): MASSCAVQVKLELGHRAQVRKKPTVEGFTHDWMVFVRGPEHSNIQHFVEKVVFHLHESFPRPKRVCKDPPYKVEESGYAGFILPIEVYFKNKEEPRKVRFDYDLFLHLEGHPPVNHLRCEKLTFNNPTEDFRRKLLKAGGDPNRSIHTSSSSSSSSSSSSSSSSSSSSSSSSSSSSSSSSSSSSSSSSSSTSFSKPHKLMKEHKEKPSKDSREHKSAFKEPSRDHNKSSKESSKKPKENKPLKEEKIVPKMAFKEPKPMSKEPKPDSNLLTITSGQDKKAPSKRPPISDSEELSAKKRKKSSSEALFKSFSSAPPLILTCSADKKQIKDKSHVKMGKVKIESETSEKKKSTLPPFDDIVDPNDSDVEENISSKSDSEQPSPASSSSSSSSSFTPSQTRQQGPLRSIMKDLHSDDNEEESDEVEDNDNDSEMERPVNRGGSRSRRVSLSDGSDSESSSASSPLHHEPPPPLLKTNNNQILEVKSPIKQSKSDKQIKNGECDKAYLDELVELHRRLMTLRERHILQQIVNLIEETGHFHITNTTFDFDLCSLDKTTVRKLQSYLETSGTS
rRNA inh HTS OD600: further read-out of rRNA inh HTS, marked with its call; OD600 change, %; measured here: OD600 growth;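 optical density of the mix in the first replicate; 0 = DMSO median and -100 = no signal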
rRNA inh HTS RFP: second read-out of rRNA inh HTS, no call of its own (marks repeat the call); RFP signal change, %; measured here: RFP humanized mutant strains;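 first replicate; 0 = DMSO median and -100 = no signal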
Starred values were filed as active, the others as inactive; i = inactive; ? = inconclusive; . = not tested or not shown. An excerpt; the hit share may differ from the screen's.

SMILES	FGF22 binding	rRNA inh HTS	rRNA inh HTS OD600	rRNA inh HTS RFP	UCH37 DUB inh	Bfl-1 A1 inh	T cruzi repl	Beta apoptosis	E coli growth	MLL AF4-AF9 inh
CSc1ncccc1C(=O)OCC(=O)N1CCCC1	i	4	-6	-2.0	1.0	1.8	.	2	0.65	0.9
CC(C)(C)N1CC(c2nc3ccccc3n2Cc2ccc(Cl)cc2)CC1=O (centres undefined)	.	.	.	.	-17	0.9	-4	-5	0.65	.
CC(=O)N=c1scc(-c2ccccc2)n1-c1cccc(O)c1	i	-2	-3	3.8	0.7	0.6	11	6	0.64	-0.9
N#Cc1ccc(-c2ccccc2)nc1Sc1ccc(F)cc1	.	.	.	.	0.5	-0.3	2	9	0.75	.
Cc1ccc(-c2cc(-c3ccco3)c(C#N)c(=O)[nH]2)cc1	i	24	1	19	-119	1.7	-4	-3	0.66	-3.0
COc1ccc(Cc2c(C)nc(N)nc2Cl)cc1	i	-6	-3	-5.1	5.3	-0.1	-13	-3	0.67	0.2
CCN(CCCNC(=O)C1CCC(=O)N1C(C)C)c1cccc(C)c1 (centres undefined)	.	.	.	.	5.0	0.5	-11	-4	0.66	.
O=C(O)CN1C(=O)/C(=C\c2cc(Br)ccc2OCc2ccc(F)cc2)SC1=S	i	-27	-42	-4.9	27*	0.2	0	-12	0.66	-6.7
C#CCOCCOCCOCCNc1nc(N2CCOCC2)nc(N2CCN(C(=O)[C@H](CCCCN)n3cc(CCC(=O)O)nn3)CC2)n1	i	8	2	-14	0.9	.	.	.	.	-0.5
Cc1nc(N2CCN(C(=O)c3ccco3)CC2)nc2c1C(=O)CCC2	i	2	0	4.1	-1.3	1.1	-17	0	0.69	1.6
O=C(O)CCC(=O)N1CCc2cc(S(=O)(=O)NC3CCCC3)ccc21	.	.	.	.	2.2	-0.4	-4	4	0.73	.
O=S1(=O)N=C(Oc2cccc3ccccc23)c2ccccc21	.	-3	8	1.7	-2.5	-0.6	9	-4	0.72	.
COc1ccccc1CC(=O)Nc1ccc2c(c1)OC1(CCCC1)O2	.	-8	-36	9.2	-1.1	-1.5	.	-6	0.67	4.2
Cc1noc(/C=C/c2nn(C)cc2Cl)c1[N+](=O)[O-]	i	4	-17	0.9	3.6	0.3	3	-2	0.65	2.4
CC(C)c1ccc(NC(=O)CNCC(c2ccccc2)N(C)C)cc1 (centres undefined)	i	12	3	1.8	1.5	-1.1	5	-1	0.69	?
CCOC(=O)c1ccc(CNCc2ccccc2)cc1	i	2	9	-4.4	0.7	-0.7	10	2	0.59	1.2
COc1cc(N=C2C(=O)N3c4c(cccc42)C(C)=CC3(C)C)cc(OC)c1	.	.	.	.	3.0	1.5	13	.	0.71	.
Cc1ccc(C(=O)Nc2nc3ccccc3c(=O)s2)cc1	.	.	.	.	5.8	-4.7	52	.	0.7	.
COc1cc(OC)cc(-c2nnc(SCc3c(F)cccc3Cl)o2)c1	.	-28*	-16*	4.8*	5.0	-1.1	20	-4	0.72	-16
O=C(O)c1ccc(S(=O)(=O)c2ccc([N+](=O)[O-])cc2[N+](=O)[O-])cc1	i	-7	-3	-5.5	14	-0.9	31	0	0.6	2.2
CN(CCOC(=O)c1ccc2c(c1)OCO2)C(C)(C)C	i	21	14	1.6	0.1	-0.1	1	-2	0.64	1.4
Cc1cc(Cl)cc(C)c1OCC(=O)N1CCN(c2ncccn2)CC1	i	-40	-68	-7.1	-2.0	0.7	.	-1	0.7	-6.1
Cc1ccc(/C=C/C(=O)O)cc1S(=O)(=O)NCC1CCCO1 (centres undefined)	.	11	2	-0.7	3.8	0.9	-9	.	0.68	0.5
Cc1cc(C)c(NC(=O)CNC(=O)c2ccccc2SCC(=O)N2CCCC2)c(C)c1	i	0	-1	0.1	-0.3	0.1	.	-2	0.72	-4.0
Cc1cccc(N2C(=O)/C(=C/c3cccnc3)SC2=S)c1	i	8	2	11	9.9	-0.1	-18	-6	0.67	.

The list goes on:
SMILES	FGF22 binding	rRNA inh HTS	rRNA inh HTS OD600	rRNA inh HTS RFP	UCH37 DUB inh	Bfl-1 A1 inh	T cruzi repl	Beta apoptosis	E coli growth	MLL AF4-AF9 inh
COc1cccc(N2CC(NS(=O)(=O)c3ccc(Cl)cc3)CC2=O)c1 (centres undefined)	i	-2	-7	0.6	-0.2	0.2	-6	-3	0.63	-1.7
CCOC(=O)C1CCCN(C(=O)CSCc2ccccc2)C1 (centres undefined)	.	.	.	.	2.2	0.5	0	1	0.69	.
C=CCNC(=O)N1CCc2[nH]c3ccc(F)cc3c2C1	i	0	-6	-0.1	5.0	0.6	-5	.	0.64	0.4
CS(=O)(=O)N(CC(=O)NCC1CCCO1)c1ccc(F)c(Cl)c1 (centres undefined)	.	.	.	.	1.2	0.8	.	-7	0.7	.
O=C(CSc1nnc(-c2cccs2)n1-c1ccccc1)N1CCCC1	.	.	.	.	-0.8	1.0	-8	-2	0.66	.
Cc1cc(Nc2cccc(Cl)c2)nc(-c2ccccc2O)n1	i	-9	-2	-9.3	-15	0.2	17	23	0.69	-0.6
C=CCn1c(SC(C)C(=O)c2c(N)n(C)c(=O)n(C)c2=O)nnc1-c1ccoc1C (centres undefined)	i	.	.	.	2.0	0.8	.	0	0.68	1.1
O=C(CCN1C(=O)/C(=C/c2ccco2)SC1=S)Nc1ccc(O)cc1C(=O)O	i	7	11	10	4.5	1.1	16	4	0.69	-4.6
Cc1ccc(C23CC4CC(CC(C(=O)NC(C)C(N)=O)(C4)C2)C3)cc1 (centres undefined)	i	0	-9	-3.0	2.7	0.0	-1	-5	0.7	0.2
O=C(NCCCn1ccnc1)C1CCN(S(=O)(=O)c2cc([N+](=O)[O-])ccc2Cl)CC1	i	-1	14	2.8	.	0.4	.	1	.	12
COc1ccc(C2CC(C(F)(F)F)n3nc(C(=O)NCc4cn(C)nc4C)c(Cl)c3N2)cc1 (centres undefined)	i	8	10	-1.1	6.0	0.2	-61	21	0.68	2.3
CC(C)C(=O)Nc1ccc(N2CCN(C(=O)c3cccs3)CC2)cc1	.	.	.	.	5.9	0.1	-11	0	0.66	.
Cc1ccc(S(=O)(=O)NC2CC3CCC2C3)cc1 (centres undefined)	i	8	6	3.5	5.8	0.2	5	.	0.66	6.6
CCNC(=O)COC(=O)c1sccc1C	i	5	3	-4.0	1.5	0.6	.	-5	0.7	-1.9
CN(C)c1ccc(NC(=O)CN2CCN(c3ccc(F)cc3)CC2)cc1	i	-2	4	-0.8	2.8	0.1	2	1	0.7	5.4
CCc1ccc(N(C(=O)CCC(=O)Nc2cc(C)on2)C(C(=O)NC2CCCC2)c2ccco2)cc1 (centres undefined)	.	.	.	.	1.7	1.5	-11	2	0.72	.
CCOC(=O)C1=C(C)NC(=O)NC1c1ccc(OCC(N)=O)cc1 (centres undefined)	.	.	.	.	-2.9	-0.1	-5	-2	0.79	.
Cc1cccc(-n2nnnc2SC(C)C(=O)NCCC2=CCCCC2)c1 (centres undefined)	.	.	.	.	-0.5	0.0	14	5	0.73	.
O=C(Cn1c(=O)n(-c2ccc(F)cc2)c(=O)c2sccc21)NC1CCCCC1	i	12	11	-14	2.5	0.5	2	-3	0.65	-4.9
COc1ccccc1NS(=O)(=O)c1ccc(NC(=O)c2ccncc2)cc1	i	-10	-7	0.1	1.9	-1.4	-4	.	0.69	-0.8
O=C(NCCCO)/C(=C\c1ccco1)NC(=O)c1ccc(Br)o1	i	26	1	6.6	4.9	0.4	-3	-7	0.72	-1.5
Cc1ccc(O)c(C(=O)c2cnc3c(c2)c(=O)n(C)c(=O)n3C)c1	i	7	11	0.3	-0.4	-0.1	-1	-12	0.66	-0.2
CC(C)CC(=O)Nc1cccc(-c2nc3ncccc3o2)c1	i	2	-2	1.8	-9.5	0.6	-1	-2	0.68	-3.5
CCN1CCN(C(=O)C2CCC(CNS(=O)(=O)c3ccccc3)CC2)CC1 (centres undefined)	i	21	4	2.5	3.4	0.1	10	-6	0.68	2.2
Fc1cccc(NC(=S)NCc2cccnc2)c1	.	.	.	.	0.9	0.8	-16	1	0.64	.

3 of the entries above in order of their number in rRNA inh HTS OD600, descending.
Compound	rRNA inh HTS OD600
Cc1ccc(O)c(C(=O)c2cnc3c(c2)c(=O)n(C)c(=O)n3C)c1	11
Cc1cccc(N2C(=O)/C(=C/c3cccnc3)SC2=S)c1	2
CC(C)CC(=O)Nc1cccc(-c2nc3ncccc3o2)c1	-2

More records.
SMILES	FGF22 binding	rRNA inh HTS	rRNA inh HTS OD600	rRNA inh HTS RFP	UCH37 DUB inh	Bfl-1 A1 inh	T cruzi repl	Beta apoptosis	E coli growth	MLL AF4-AF9 inh
O=C(COC(=O)/C=C/c1ccccc1)NCc1cccs1	i	-2	-1	-0.4	5.5	-2.2	.	-2	0.69	0.4
COc1cccc(C=Nc2cccc3c(=O)[nH][nH]c(=O)c23)c1O	i	36	26	1.5	-4.3	-8.8	6	-2	0.65	-5.3
CN(C)c1ccc(CNS(=O)(=O)c2csc(C(N)=O)c2)cc1	i	7	1	1.7	-0.3	2.4	-17	6	0.69	-0.5
COc1cccc(NC(=O)CN(C)CC(=O)Nc2ccc(C)c(S(=O)(=O)N3CCOCC3)c2)c1	i	.	.	.	-0.1	.	.	.	0.66	0.0
O=C(c1nc2ccccn2c1CNCCCn1ncc2ccccc21)N1CCCC1	i	5	6	-0.9	-0.9	-0.5	-6	-4	0.72	5.2
COc1ccc(S(=O)(=O)NC(C)C(=O)NCc2ccccn2)cc1OC (centres undefined)	i	6	6	-0.3	2.7	0.8	-5	-1	0.67	-1.7
O=C1N=C(N2CCOCC2)S/C1=C1\C(=O)N(Cc2ccccc2)c2ccccc21	.	.	.	.	3.1	-5.3	31	1	0.67	.
CCCc1nc2nc(C)c(NS(=O)(=O)c3ccc(Cl)cc3)c(=O)n2[nH]1	i	-4	9	-1.7	0.3	-0.1	-8	0	0.69	-1.9
CN(Cc1ccccc1)C(=O)CN1C(=O)NC2(CCCCCCC2)C1=O	i	0	0	-1.7	1.6	-0.5	.	-3	0.62	-3.3
Cc1ccc(C(=O)NCC(C)NC(=O)c2ccc(C)c(C)c2)cc1C (centres undefined)	i	8	3	4.3	3.3	1.6	-2	.	0.69	0.2
CCOC(=O)c1ccc2c(c1)[nH]c(=S)n2CC	i	-3	-5	-1.2	2.4	-0.5	0	7	0.69	-4.7
OCCC1CN(CC2CC2)CCN1Cc1ccc(F)c(F)c1 (centres undefined)	i	4	8	4.8	1.1	0.7	-20	.	0.62	-4.5
COc1ccc(OCCNC(=O)c2ccccc2Cl)cc1	i	2	12	-4.7	2.9	0.7	-14	-5	0.67	-11
C=CCn1c(NCc2ccccc2OC)nc2ccccc21	i	-1	0	-2.4	5.5	0.3	-6	3	0.67	-1.0
O=C(CN(C(=O)c1csnn1)c1ccc(Cl)cc1)NCc1ccc2c(c1)OCO2	i	3	8	1.5	6.0	?	-5	3	0.71	1.9
O=C1Nc2ccccc2/C1=C/c1ccc([N+](=O)[O-])cc1	i	-2	8	-9.9	1.1	-1.0	21	23	0.69	-3.2
